Assay outcomes from PubChem.
CFTR F508del = total CFTR protein upregulators, primary screen, cell-based, HeLa F508del-CFTR, immunofluorescence, viability (AID 1224863); Cystic fibrosis transmembrane conductance regulator (Homo sapiens); HeLa F508del-CFTR, immunofluorescence total CFTR, 24 h; by the record results were divided by relative cell number; some inactives read as strong as hits; calls, or highest fold increase where a dose series was run; 10,000 compounds, 0.1% hits; in the data nearly all actives have a first-pass fold increase above 1.5; a few of its hits are not listed in these tables;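 note: total CFTR protein by anti-CFTR immunofluorescence in fixed cells; first pass at 25 µM or 10 µg/mL by library and series up to twice that; 1 = untreated cells; first-pass hits also needed half or more of the cells alive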
CFTR F508del fold 25 µM = also measured in CFTR F508del; calls as there; fold increase; measured here: primary screen single dose 25 uM; library dosed in µM
CFTR F508del fold 10 ug/mL = also measured in CFTR F508del; calls as there; fold increase; measured here: primary screen 10 ug/mL
CFTR F508del viability 25 µM = second read-out of CFTR F508del, no call of its own (marks repeat the call); viability, %; measured here: primary viability 25 uM; library dosed in µM;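 0% = killed and 100% = untreated cells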
CFTR F508del viability 10 ug/mL = second read-out of CFTR F508del, no call of its own (marks repeat the call); viability, %; measured here: primary viability 10 ug/mL;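 0% = killed and 100% = untreated cells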
Starred values were filed as active, the others as inactive; i = inactive; . = not tested or not shown; & = joins results of further samples. Some of the compounds tested, so the mix of outcomes need not match the whole.

Preview:
SMILES	CFTR F508del	CFTR F508del fold 10 ug/mL	CFTR F508del viability 10 ug/mL	others
COc1ccc(S(=O)(=O)NC2(c3ccc(Br)cc3)CCC2)cc1OC	i	0.94	89
COc1cc(OC)c(C2=CCN(c3nc4sccn4c3[N+](=O)[O-])CC2)c(OC)c1	i	0.92	70
COC(=O)CN(C)CC(=O)Nc1sccc1C(N)=O	i	1	96
O=S(=O)(c1ccc(F)cc1)C(F)F	i	1.1	96
Cc1ccc(CN(C)c2ccc3nnnn3n2)cc1	i	1.1	98
CC#C[C@]1(O)CCC2C3CCC4=CC(=O)CCC4=C3[C@@H](c3ccc(N(C)C)cc3)C[C@@]21C (stereo partly drawn)	i	.	.	CFTR F508del fold 25 µM=0.82;CFTR F508del viability 25 µM=75

The whole of this part, from the first entry:
SMILES	CFTR F508del	CFTR F508del fold 10 ug/mL	CFTR F508del viability 10 ug/mL	others
COc1ccc(S(=O)(=O)NC2(c3ccc(Br)cc3)CCC2)cc1OC	i	0.94	89
COc1cc(OC)c(C2=CCN(c3nc4sccn4c3[N+](=O)[O-])CC2)c(OC)c1	i	0.92	70
COC(=O)CN(C)CC(=O)Nc1sccc1C(N)=O	i	1	96
O=S(=O)(c1ccc(F)cc1)C(F)F	i	1.1	96
Cc1ccc(CN(C)c2ccc3nnnn3n2)cc1	i	1.1	98
CC#C[C@]1(O)CCC2C3CCC4=CC(=O)CCC4=C3[C@@H](c3ccc(N(C)C)cc3)C[C@@]21C (stereo partly drawn)	i	.	.	CFTR F508del fold 25 µM=0.82;CFTR F508del viability 25 µM=75
CC(O)CC(Sc1ccc2ccccc2n1)C(=O)O (stereo not drawn)	i	0.95	79
CC(C)C(C)(C#N)NC(=O)CN1CCCCCCC1 (stereo not drawn)	i	1	93
N#Cc1c(/C=C/c2ccccc2OC(F)F)cc(-c2cccc(F)c2)n2c1nc1ccccc12	i	1.1	116
CS(=O)(=O)N1CCC(NC(=O)C2(c3ccc4c(c3)OCCO4)CCCC2)CC1	i	0.95	101
CC1Cc2cc(S(N)(=O)=O)ccc2N1Cc1ccc(C(F)(F)F)cc1 (stereo not drawn)	i	0.8	68
COC(=O)c1c(C)[nH]c(C(=O)OC(C)C(=O)NC(C)C)c1C (stereo not drawn)	i	0.93	101
COC(=O)c1c(NC(=O)COC(=O)c2ccc([N+](=O)[O-])o2)sc2c1CCCCC2	i	1.1	80
CS(=O)(=O)c1ccc(C2=C(c3ccccc3)C(=O)OC2)cc1	i	.	.	CFTR F508del fold 25 µM=1.1&1;CFTR F508del viability 25 µM=89&108
NCC[C@@H](O)C(=O)N[C@@H]1C[C@H](N)[C@@H](O[C@H]2O[C@H](CN)[C@@H](O)[C@H](O)[C@H]2O)[C@H](O)[C@H]1O[C@H]1O[C@H](CO)[C@@H](O)[C@H](N)C1O (stereo partly drawn)	i	.	.	CFTR F508del fold 25 µM=1;CFTR F508del viability 25 µM=104
c1ccc2c(c1)sc1nnc(SCC34CC5CC(CC(C5)C3)C4)n12	i	1	107
O=C(O)C1CC(=O)N(c2ccc(S(=O)(=O)Nc3ccc(F)c([N+](=O)[O-])c3)cc2)C1 (stereo not drawn)	i	0.93	85
CC(C)N=C1NN=C(c2c(F)cccc2F)CS1	i	1.1	100
NCCOc1ccc2c(c1)CCC(=O)N2	i	1.3	106
C=CCN(C(=O)c1[nH]c(C)c(C(C)=O)c1C)c1nc2c(s1)CCCC2	i	0.96	94

Reprinted at random: two compounds from above
SMILES	CFTR F508del	CFTR F508del fold 10 ug/mL	CFTR F508del viability 10 ug/mL	others
Cc1ccc(CN(C)c2ccc3nnnn3n2)cc1	i	1.1	98
COC(=O)c1c(C)[nH]c(C(=O)OC(C)C(=O)NC(C)C)c1C (stereo not drawn)	i	0.93	101

(cont.)
SMILES	CFTR F508del	CFTR F508del fold 10 ug/mL	CFTR F508del viability 10 ug/mL	others
CC12CSCC(=O)N1C(C(=O)O)CS2 (stereo not drawn)	i	0.93	101
Cc1cc(C(=O)NC2CCCC(OCC(F)(F)F)C2)sc1C (stereo not drawn)	i	0.99	95
C[C@H]1C[C@H]2[C@@H]3CCC4=CC(=O)C=C[C@]4(C)[C@H]3C(=O)C[C@]2(C)[C@@]1(O)C(=O)CO	i	.	.	CFTR F508del fold 25 µM=0.99;CFTR F508del viability 25 µM=92
Cc1cc(C)n2c(n1)nc(=S)n2CN1CCCC(C(F)(F)F)C1 (stereo not drawn)	i	1.1	81
NS(=O)(=O)c1cccc(S(=O)(=O)N2CCc3ccccc3C2)c1	i	0.97	90
COCCNS(=O)(=O)C1=Cc2ccccc2CC1	i	0.78	82
CCN(Cc1ccc(Br)s1)CN1C(=O)C2CC=CCC2C1=O (stereo not drawn)	i	0.94	99
C[C@H]1[C@H](NC(=O)/C(=N/OC(C)(C)C(=O)O)c2csc(N)n2)C(=O)N1S(=O)(=O)O (stereo in doubt)	i	.	.	CFTR F508del fold 25 µM=1.1;CFTR F508del viability 25 µM=93
Nc1nc(-c2ccc3c(c2)CCCC(=O)N3)cs1	i	0.96	101
COC(=O)[C@@H]1[C@H]2C[C@H]3c4[nH]c5ccccc5c4CCN3C[C@@H]2CC[C@@H]1O	i	.	.	CFTR F508del fold 25 µM=0.95&1;CFTR F508del viability 25 µM=94&94
Cc1ccc(S(=O)(=O)N2CCN(S(=O)(=O)N(C)C(C)C)CC2)s1	i	0.9	93
c1ccc(OCc2nc3ccccc3n2Cc2nnnn2C2CC2)cc1	i	1	100
Nc1cc(N2CCCS2(=O)=O)ccc1O	i	1.1	91
COc1cccc2c1C(=O)c1c(O)c3c(c(O)c1C2=O)C[C@@](O)(C(=O)CO)C[C@@H]3OC1C[C@H](N)[C@H](O)[C@H](C)O1 (stereo partly drawn)	i	.	.	CFTR F508del fold 25 µM=0.61;CFTR F508del viability 25 µM=36
CSCCC1NC(=O)N(CC(=O)NCCC2=CCCCC2)C1=O (stereo not drawn)	i	0.98	95
CC(C)(C)OC(=O)N1CC=C(n2c(=O)n(CN3CCN(c4ccccc4)CC3)c3ccccc32)CC1	i	1.1	98
Cn1cnnc1CNS(=O)(=O)c1cccs1	i	1	105
O=S(=O)(c1cccnc1)N1CCN(c2nccc(C(F)(F)F)n2)CC1	i	1	108
Cn1nnnc1Sc1ncnc2sc3c(c12)CCCCC3	i	1.1	99
COc1c(N2CCNC(C)C2)c(F)cc2c(=O)c(C(=O)O)cn(C3CC3)c12 (stereo not drawn)	i	.	.	CFTR F508del fold 25 µM=0.97&1.1&1.1;CFTR F508del viability 25 µM=91&102&97
CCOc1cc(CC(=O)N[C@@H](CC(C)C)c2ccccc2N2CCCCC2)ccc1C(=O)O	i	.	.	CFTR F508del fold 25 µM=1;CFTR F508del viability 25 µM=99
N#Cc1nc2c(S(=O)(=O)c3ccccc3)c(N)n(CCCN3CCOCC3)c2nc1C#N	i	0.88	76
CC(C)(C)c1nc(CN2CCN(c3oc(-c4ccco4)nc3C#N)CC2)no1	i	0.98	100
CC(C)C(C)NS(=O)(=O)c1ccc(S(C)(=O)=O)cc1 (stereo not drawn)	i	0.96	98
CC1(c2ccccc2)NN=C(N)S1 (stereo not drawn)	i	0.98	96
COCCCN=C1NN=C(c2cc(C)c(C)cc2C)CS1	i	1	80
Cc1[nH]c(=O)c(C#N)cc1-c1ccncc1	i	.	.	CFTR F508del fold 25 µM=1&1&1;CFTR F508del viability 25 µM=108&84&100
S=c1n(CN2CCOCC2)nc(CN2CCCC2)n1-c1ccccc1	i	1.1	99
CC(C)c1noc(CCC(=O)NC2CCCCC2)n1	i	0.92	101
CCCCNC(=O)NS(=O)(=O)c1ccc(C)cc1	i	.	.	CFTR F508del fold 25 µM=1&1.1;CFTR F508del viability 25 µM=77&83
CN(C(=O)CSc1nc2sccc2c(=O)n1C)C1CCCCC1	i	0.96	78
COC(=O)c1sc(N2CCOCC2)nc1NC(=O)CN1C(=O)NC2(CC(C)CC(C)(C)C2)C1=O (stereo not drawn)	i	1.1	100
O=C(NOCc1ccccc1)c1cccc(I)c1	i	0.89	93
Cc1c(C2Nc3ccccc3C(=O)N2CC2CCCO2)cc(C#N)n1C (stereo not drawn)	i	1	92
CN/C(=C\[N+](=O)[O-])NCCSCc1csc(CN(C)C)n1	i	.	.	CFTR F508del fold 25 µM=1.1;CFTR F508del viability 25 µM=101
COc1ccc2c(c1)c(CC(=O)OCC(=O)O)c(C)n2C(=O)c1ccc(Cl)cc1	i	.	.	CFTR F508del fold 25 µM=1.1&1.1;CFTR F508del viability 25 µM=86&86
CO/N=C(\C(=O)N[C@@H]1C(=O)N2C(C(=O)[O-])=C(C[N+]3(C)CCCC3)CS[C@H]12)c1csc(N)n1	i	.	.	CFTR F508del fold 25 µM=1.1;CFTR F508del viability 25 µM=95
Cc1ccsc1C(=O)NCCSC1CCCC1	i	0.95	103
CN(Cc1ccc(Cl)cc1)Cn1nc(C2COc3ccccc3O2)n(C)c1=S (stereo not drawn)	i	1.1	103
O=C1CCc2cc(C(=O)N3CCCC3)ccc2N1	i	1	94
Nc1ccn([C@@H]2O[C@H](CO)[C@@H](O)C2O)c(=O)n1 (stereo partly drawn)	i	.	.	CFTR F508del fold 25 µM=1.2&1.1;CFTR F508del viability 25 µM=82&90
O=C(c1cnc2n(c1=O)CCS2)N1CCN(c2cnn(-c3ccccc3)c(=O)c2Cl)CC1	i	0.93	98
O=C(NCC(O)CO)c1c(I)c(C(=O)NCC(O)CO)c(I)c(N(CCO)C(=O)CO)c1I (stereo not drawn)	i	.	.	CFTR F508del fold 25 µM=1.3;CFTR F508del viability 25 µM=97
CC1CN(S(=O)(=O)N2CCN(S(=O)(=O)c3cccs3)CC2)CC(C)O1 (stereo not drawn)	i	0.98	90
CC(=C(CCOP(=O)(O)O)SC(=O)c1ccccc1)N(C=O)Cc1cnc(C)nc1N	i	.	.	CFTR F508del fold 25 µM=1;CFTR F508del viability 25 µM=81
CC(C)(C)C(NCn1nc(-c2cccs2)n(C2CC2)c1=S)c1cccs1 (stereo not drawn)	i	1	80
Clc1ccc(-c2nn(-c3ccccc3)cc2C2CC(c3ccccc3)=NN2c2ccccc2)cc1 (stereo not drawn)	i	0.93	108
Cc1cc(/C=C(/C#N)c2nc3ccccc3n2C)c(C)n1-c1cccc([N+](=O)[O-])c1	i	1.1	95
CC(=O)Nc1ccc(OC(C)=O)cc1	i	.	.	CFTR F508del fold 25 µM=1.1;CFTR F508del viability 25 µM=101
O=S(=O)(c1ccc2c(c1)CCC2)N1CCCCCC1	i	1	89
CCC(C)(C)C1CCC2(CC1)NC(=O)N(CC(=O)c1ccc3c(c1)CCCN3S(C)(=O)=O)C2=O (stereo not drawn)	i	1.1	103
Cc1nnc(CSc2ccc(S(=O)(=O)N3CCCC3)cn2)o1	i	1	72
O=C1OCCC1Sc1ncc(-c2ccc(Cl)cc2)o1 (stereo not drawn)	i	0.97	103
CCOC(=O)c1c(C)oc2nc(CN3CCCC3c3ccsc3)[nH]c(=O)c12 (stereo not drawn)	i	0.99	103
CSc1ccc(NC(=O)C23CC4CC(CC(O)(C4)C2)C3)cc1	i	0.96	95
O=C(CN1C(=O)NC2(CCCCC2)C1=O)NC1CCCCCCC1	i	0.94	85
CCCn1nnnc1Cn1cnc2oc(C)c(C(=O)OCC)c2c1=O	i	1.1	101
O=C(O)CCCc1nc2ccccc2o1	i	1.1	100
Cn1c(C(=O)O)c(Cl)c2cc(Br)ccc21	i	1.1	99
CCOC(=O)c1sc2ncnc(NCCN3CCCC3)c2c1C	i	1.1	98

Arranged by formula weight (high to low): some entries from above
SMILES	CFTR F508del	CFTR F508del fold 10 ug/mL	CFTR F508del viability 10 ug/mL	others
CCC(C)(C)C1CCC2(CC1)NC(=O)N(CC(=O)c1ccc3c(c1)CCCN3S(C)(=O)=O)C2=O (stereo not drawn)	i	1.1	103
CCOC(=O)c1sc2ncnc(NCCN3CCCC3)c2c1C	i	1.1	98
O=S(=O)(c1ccc2c(c1)CCC2)N1CCCCCC1	i	1	89

Later entries:
SMILES	CFTR F508del	CFTR F508del fold 10 ug/mL	CFTR F508del viability 10 ug/mL	others
O=C(O)CS(=O)(=O)Cc1ccccn1	i	1	106
CCc1[nH]c(C(=O)NC(C2CC2)C2CC2)c(C)c1C(=O)OC	i	0.93	91
CCN(Cc1ccc(Br)s1)CN1C(=O)C(=O)N(C(C)C)C1=O	i	1.1	93
CC(=O)Nc1sc(C)c(C)c1C(=O)OCC(=O)N1CCCC1	i	0.99	97
O=C(NCCCN1C(=O)NC2(CCCC2)C1=O)N1CCN(c2ccccc2)CC1	i	1	104
CN(C)c1nc(N)nc(CN2CCN(c3nnnn3-c3ccccc3)CC2)n1	i	0.89	95
O=[N+]([O-])c1cccc(OCCN2CCN(S(=O)(=O)N3CCOCC3)CC2)c1	i	0.99	90
COc1ccccc1OCC(O)CN1CCN(CC(=O)Nc2c(C)cccc2C)CC1 (stereo not drawn)	i	.	.	CFTR F508del fold 25 µM=0.98&1.1&1.1&1;CFTR F508del viability 25 µM=94&100&90&91
CN(C)c1ccc(CNCCCN2CCOCC2)cc1	i	1	86
O=C1NC2CSC(CCCCC(=O)N3CCc4ccccc43)C2N1 (stereo not drawn)	i	1.1	92
CN(C)C(=O)CN1C(=O)C(=O)N(C23CC4CC(CC(C4)C2)C3)C1=O	i	1.1	88
CCOC(=O)c1sc2nc(C)nc(SCC#N)c2c1C	i	1	95
O=C(c1cc(S(=O)(=O)c2ccccc2)c2nc3ccccc3n2c1)c1ccccc1O	i	0.84	94
Cc1cc(NC(=O)CCSc2nnnn2C2CCCC2)no1	i	1.1	106
COc1ccc(CN(C2CC2)S(=O)(=O)c2ccc(OC)c(OC)c2)cc1	i	0.89	84
CCCCCN(C(=O)COC(=O)c1ccc(Br)o1)c1c(N)n(CCCC)c(=O)[nH]c1=O	i	0.89	102
